Source: PubChem BioAssay (several laboratories)
HIV Env fusion = blocks HIV Env-driven cell-cell fusion; HeLa-JRFL Env/CEM21 cell fusion, luciferase; inhibition, % at 12.3 µM; actives 1.1% (n = 360,000);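 active means mean replicate inhibition score of at least 50 and every replicate individually at or above 50; inconclusive means only one of the two criteria met; inactive means mean below 50 and not all replicates reaching 50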;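 further: 0% = plate neutral controls and 100% = maraviroc near 300 nM; one replicate is shown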
CSC inhib = blocks cancer stem cells; actives 1.1% (n = 300,000); AID 2717; cancer stem cell-like cells viability, luminescence; inhibition, % at 7.5 µM;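 active means mean at 75% or more and at least half the replicates too; inconclusive means mean and replicates disagree; tested in HMLE shEcad cells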;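 further: 0% = median of negative and 100% = median of positive control wells; the first replicate is given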
Rce1 inhib = inhibitors of yeast Ras-converting enzyme. actives 0.27% (n = 290,000). yeast membranes, quenched prenylated peptide cleavage fluorescence. calls only. Q03530;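 active means fall in fluorescence gain of 50% or more versus controls, with final raw signal at or below 3038400; inconclusive means same 50% fall but final raw signal above 3038400; inactive means fall in fluorescence gain under 50%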;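 further: plate controls were neutral control wells for no effect and wells lacking membranes for full effect; tested at 10 µM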
Target sequence (Q03530 whole entry, looked up): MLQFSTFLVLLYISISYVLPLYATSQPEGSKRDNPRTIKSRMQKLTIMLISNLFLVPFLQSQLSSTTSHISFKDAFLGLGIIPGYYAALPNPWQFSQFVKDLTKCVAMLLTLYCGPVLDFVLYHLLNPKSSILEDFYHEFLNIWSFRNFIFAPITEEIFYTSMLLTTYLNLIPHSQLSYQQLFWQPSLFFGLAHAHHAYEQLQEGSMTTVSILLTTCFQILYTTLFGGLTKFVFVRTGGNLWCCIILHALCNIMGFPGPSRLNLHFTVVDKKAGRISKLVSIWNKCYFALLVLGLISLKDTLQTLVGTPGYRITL
MT1-MMP act inh = MT1-MMP (human) activation inhibition; GFP/RFP ratio change, % at 20 µM; HT1080 RFP-PRO-GFP cells, GFP/RFP ratio fluorescence, overnight; percent of plate control window, DMSO zero; actives 0.061% (n = 360,000); P50281;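 active means GFP/RFP ratio change of at least 30% with cell ATP level not reduced by more than half and red fluorescence within 50% of control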; further: strong numbers were not always called active
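Assay system – RFP-PRO-GFP reporter HT1080 cells · Compound dosing – single dose of 20 µM compound, 1% DMSO final · Incubation – overnight compound exposure at 37 °C · Measure – GFP/RFP fluorescence ratio · Benchmarks – DMSO wells and RFP-L50D-GFP cells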
eIF4H inh = inhibitors of RNA binding by human eIF4H; Q15056; eIF4H fluorescence polarization binding assay; inhibition, % at 35 µM; actives 0.94% (n = 290,000);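 active means 50% or more with normal probe brightness, or confirmed in later tests; inconclusive means above 50% with abnormal brightness, or retests that disagree; inactive means below 50% or failed in later tests; about a fifth of its hits are not listed in these tables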;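 further: calls also rest on retests at 20 µM and on dose response follow-up; 0% = protein and probe with vehicle and 100% = probe without protein; strong numbers were not always called active; many hits fall short of the cut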
PABP polyA inh = PABP-poly(A) binding inhibition | P11940 | actives 1% (n = 290,000) | PABP-poly(A) RNA binding, fluorescence polarization | AID 2014 | inhibition, % at 35 µM;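 active means 50% or more with normal probe brightness, or confirmed in later tests; inconclusive means above 50% with abnormal brightness, or retests that disagree; inactive means below 50% or failed in later tests; about a fifth of its hits are not listed in these tables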;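 further: calls also rest on retests at 20 µM and on dose response follow-up; controls were probe without protein and protein plus probe with vehicle; some compounds called inactive have numbers as strong as hits; many hits fall short of the cut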
Target sequence (P11940 whole entry, looked up): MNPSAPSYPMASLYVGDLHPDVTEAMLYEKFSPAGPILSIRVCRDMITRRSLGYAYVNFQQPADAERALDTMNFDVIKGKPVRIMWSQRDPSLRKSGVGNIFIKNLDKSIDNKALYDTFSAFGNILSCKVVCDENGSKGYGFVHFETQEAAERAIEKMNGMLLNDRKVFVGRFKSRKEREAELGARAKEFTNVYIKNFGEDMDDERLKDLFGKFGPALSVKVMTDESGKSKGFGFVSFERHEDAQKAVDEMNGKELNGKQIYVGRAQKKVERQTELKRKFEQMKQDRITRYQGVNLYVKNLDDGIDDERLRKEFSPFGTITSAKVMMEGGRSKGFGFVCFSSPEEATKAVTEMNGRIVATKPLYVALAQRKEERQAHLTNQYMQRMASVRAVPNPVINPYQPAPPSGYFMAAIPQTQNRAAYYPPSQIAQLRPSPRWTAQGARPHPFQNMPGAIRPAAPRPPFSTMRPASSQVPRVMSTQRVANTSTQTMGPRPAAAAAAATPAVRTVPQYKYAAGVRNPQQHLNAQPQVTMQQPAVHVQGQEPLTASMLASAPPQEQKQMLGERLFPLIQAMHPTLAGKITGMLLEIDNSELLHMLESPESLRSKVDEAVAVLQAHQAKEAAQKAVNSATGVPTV
UUG fidelity = modulators of start codon recognition fidelity in yeast. S. cerevisiae UUG-firefly luciferase reporter, luminescence/redox ratio. activity score, % at 18.7 µM. actives 0.13% (n = 350,000). AID 602363;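 active means replicate mean at a twofold rise or more, about +100% in these data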;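 further: firefly luciferase made from a UUG start codon reports start codon fidelity; reporter light over untreated wells divided by growth signal over untreated wells; some hits fall short of that in this replicate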
MT1-MMP act inh RFP = recorded beside MT1-MMP act inh, whose call it bears; RFP signal change, %; measured here: RFP expression control read;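 0 = vehicle wells; hits needed this value within 50% of zero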
* = called active by the depositor; i = inactive; ? = inconclusive; nt = no result given; & = joins results of further samples.

The opening two records, ahead of the listing:
The line under a structure holds: Rce1 inhib, MT1-MMP act inh, UUG fidelity, PABP polyA inh, HIV Env fusion, eIF4H inh, MT1-MMP act inh RFP, CSC inhib
> COc1ccc(-c2ccc3c(c2)[C@@H]2C[C@H](N(C)S(=O)(=O)c4ccccc4)[C@H]([C@H](C)O)C(=O)N2CC3)cc1
    nt, -3, -12, nt, -171, nt, -6, nt
> CCCn1c(C)nc2c(c1=O)c1nc3ccccc3nc1n2-c1ccccc1
    nt, 0, -13, nt, -18, nt, 1, nt

The list itself, repeating the preview:
The line under a structure holds: Rce1 inhib, MT1-MMP act inh, UUG fidelity, PABP polyA inh, HIV Env fusion, eIF4H inh, MT1-MMP act inh RFP, CSC inhib
> COc1ccc(-c2ccc3c(c2)[C@@H]2C[C@H](N(C)S(=O)(=O)c4ccccc4)[C@H]([C@H](C)O)C(=O)N2CC3)cc1
    nt, -3, -12, nt, -171, nt, -6, nt
> CCCn1c(C)nc2c(c1=O)c1nc3ccccc3nc1n2-c1ccccc1
    nt, 0, -13, nt, -18, nt, 1, nt
> COc1ccc(CCNC(=O)c2cccc(-n3cnnn3)c2)cc1
    nt, 1, -17, nt, -6, nt, -3, 5
> NC(=O)c1c(NC(=O)C2CC=CCC2C(=O)O)sc2c1CCCCC2 (stereo unspecified)
    i, -5, -16, 17, -23, 37, 4, 6
> O=C(Cn1cc([N+](=O)[O-])ccc1=O)NCc1ccc(Cl)cc1Cl
    i, 2, -12, -10, -46, -10, 6, -20
> COC(=O)C1=C(C(=O)OC)[C@@H]2N(C)c3ccc(OC)cc3[C@@]23C[C@@H](C(=O)OC)N(C(=O)COCc2ccccc2)C3=N1
    i, nt, nt, nt, -48, nt, nt, -23
> Cc1nn(CC(=O)NCCCN2C(C)CCCC2C)c(=O)c2cc3occc3n12 (stereo unspecified)
    i, -1, -15, 8, -4, 8, 2, -12
> Cc1ccc(C(=O)C[n+]2cccc3cc(C)ccc32)cc1
    i, -82, 9, 1, -3, ?, -2, -4
> O=C(Nc1ccccc1N(C(=O)c1ccco1)S(=O)(=O)c1cccs1)c1ccco1
    i, -3, -12, 13, nt, 0, 0, 17
> CC(C)CC(NS(=O)(=O)OCC(Cl)(Cl)Cl)c1ccccc1 (stereo unspecified)
    i, 6, -12, 0, 5, -2, 0, 39
> Cc1ccc(C)c(NC(=O)COC(=O)c2c(-c3ccccc3)noc2C)c1
    nt, -1, -1, nt, -155, nt, 3, nt
> CCCNC(=O)C(Cc1ccccc1C)NC(=O)c1ccc(C(F)(F)F)cc1 (stereo unspecified)
    nt, 2, -10, nt, -53, nt, -1, -23
> C[C@H]1CN([C@@H](C)CO)C(=O)c2cc(NC(=O)c3ccncc3)ccc2O[C@H]1CN(C)Cc1ccc(C(=O)O)cc1
    nt, -2, -5&-17, nt, -9, nt, 3, -17
> COc1ccc(/C=C/C(=O)NC(=S)Nc2ccccn2)cc1
    i, 3, -19, 0, -16, -6, 0, -7
> COc1cccc(C2NC(=O)CCC2[N+](=O)[O-])c1 (stereo unspecified)
    i, 3, -7, 10, 1, 2, 7, -17
> COCCNC(=O)C(c1ccc(C)o1)N(CC1CCCO1)C(=O)Cn1nnc2ccccc21 (stereo unspecified)
    i, 5, 0, 4, -68, -5, 2, -8
> NC[C@H]1O[C@H](O[C@H]2[C@H](O)[C@@H](O[C@H]3O[C@H](CO)[C@@H](O)[C@H](N)[C@H]3O)[C@H](N)C[C@@H]2N)[C@H](N)C[C@@H]1O
    i, 1, -13, 6, nt, 1, 0, nt
> CC1C(=O)N(Cc2cn(CCC3OCCCO3)nn2)CCS(=O)(=O)N1Cc1ccc(-c2ccc(Cl)cc2)cc1 (stereo unspecified)
    nt, 2, 16, nt, 19, nt, -20, nt
> CC(NC(=S)NC1CCC(C(C)(C)C)CC1)c1ccccc1 (stereo unspecified)
    i, -5, -16, -1, -11, -6, -2, 30
> CCOC(=O)C1CN(S(C)(=O)=O)c2cc(CC(=O)OC)ccc2O1 (stereo unspecified)
    i, -3, nt, 21, 5, 4, 2, -3
> CN(Cc1ccccc1)C(=O)c1[nH]cnc1C(=O)NCC(=O)OC(C)(C)C
    i, 4, -7, 18, -6, 0, -2, 2
> CC(C)CC(NS(=O)(=O)c1ccccc1)C(=O)O (stereo unspecified)
    i, -3, nt, 14, -43, -6, 3, -9
> Cc1ccccc1OCC(=O)NNC(=O)c1ccc(-n2cncn2)c([N+](=O)[O-])c1
    i, 2, nt, nt, -5, nt, 2, -3
> COc1ccc(Cl)cc1NC(=O)CN(C)C(=O)c1ccc2c(c1)CC(c1ccccc1)OC2=O (stereo unspecified)
    nt, 1, 0, nt, 23, nt, -7, 8
> CCCC1(C(=O)O)NC(c2ccc(OC)cc2O)C2C(=O)N(c3ccc(OC)cc3)C(=O)C21 (stereo unspecified)
    i, 3, -4, 10, 11, 6, 9, 10
> CCCOC1CCCN(C(=O)c2ccc(OC)c(OC3CCN(C(C)C)CC3)c2)C1 (stereo unspecified)
    i, -6, -5, 20, 10, 5, 1, 5
> COC(=O)c1ccc2nc(C)cc(Nc3ccccc3C)c2c1
    i, 5, 10, -1, -13, -5, -1, -11
> CCc1ccc(-c2cc(C(=O)Nc3ccc(S(=O)(=O)NC(C)=O)cc3)c3ccccc3n2)cc1
    i, 2, -10, 7, nt, 3, 0, -9
> COC(=O)c1nc(NC(=O)c2ccc(Cl)cc2)n[nH]1
    i, 3, -16, 12, nt, 0, 1, -13
> Cc1ccc(OCC(=O)NCCc2c[nH]c3ccccc23)cc1
    i, 2, 0, 1, 1, 4, -2, 14
> COc1ccc(S(=O)(=O)N2CCC(C(=O)NCc3cccnc3)CC2)cc1OC
    nt, 1, -14, 0, 15, 1, 3, -7
> c1ccc(NC2=NCCN2CCC2CCCC2)cc1
    i, -3, -1, 12, 1, -5, 1, 6
> Cc1csc(SCC(=O)Nc2cccc3nsnc23)n1
    nt, -16, -4, 1, nt, -14, -12, 4
> COc1ccccc1OCCC(=O)Nc1nc(C)cs1
    i, 0, -12, -5, 3, 0, 5, -6
> COc1ccc(N2CCN(C(=O)COC(=O)/C=C/c3ccc(C(F)(F)F)cc3)CC2)cc1
    i, 4, -1, nt, 5, nt, 2, 3
> Cc1cc(OCC(=O)OCC(=O)NC2CCCCC2C)ccc1Cl (stereo unspecified)
    nt, -5, -15, nt, nt, nt, 0, -7
> c1ccc2c(CNc3ccc(CNc4ncn[nH]4)cc3)cccc2c1
    i, 2, -11, 5, nt, 3, -12, -2
> COC(=O)c1ccsc1NC(=O)c1ccc(Cl)s1
    i, -6, -5, 4, -6, -3, 1, -10
> CN(CCOc1ccccc1)C(=O)c1cc([N+](=O)[O-])cc([N+](=O)[O-])c1
    i, 2, nt, -2, -7, -8, -1, 1
> CC(CC(=O)Nc1ccc2c(c1)c(=O)n(C)n2-c1cccs1)c1ccccc1 (stereo unspecified)
    nt, -3, -17, nt, 5, nt, -11, nt

Single entries from the results shown:
In PABP polyA inh, `Cc1ccc(OCC(=O)NCCc2c[nH]c3ccccc23)cc1` reads 1
In MT1-MMP act inh RFP, `Cc1ccccc1OCC(=O)NNC(=O)c1ccc(-n2cncn2)c([N+](=O)[O-])c1` reads 2
In CSC inhib, `Cc1cc(OCC(=O)OCC(=O)NC2CCCCC2C)ccc1Cl` (stereo unspecified) reads -7
In CSC inhib, `Cc1csc(SCC(=O)Nc2cccc3nsnc23)n1` reads 4
In PABP polyA inh, `COc1ccc(S(=O)(=O)N2CCC(C(=O)NCc3cccnc3)CC2)cc1OC` reads 0

The list goes on:
The line under a structure holds: Rce1 inhib, MT1-MMP act inh, UUG fidelity, PABP polyA inh, HIV Env fusion, eIF4H inh, MT1-MMP act inh RFP, CSC inhib
> CCOc1cc(Cl)c(NC(C)=O)cc1OCC
    i, 0, nt, -4, 28, 1, 4, -17
> CN(C(=O)c1c(Cl)nc2sccn12)C1CCCCC1
    i, 8, -14, 5, nt, -13, 2, -8
> Cc1ccc(N2CCN(Cc3ccccc3)CC2=O)c(C)c1
    i, 1, -11, 0, 13, 15, 1, -9
> CCCCN(C(=O)c1c(CC)noc1C)c1c(N)n(CCC)c(=O)[nH]c1=O
    i, 1, nt, nt, 4, nt, 0, -12
> CCCOc1ccccc1NC(=O)Nc1ccccc1Cl
    i, -4, nt, 10, 7, -2, -4, -8
> COc1ccccc1CNC(=O)c1oc2ccccc2c1C
    i, -2, 12, -1, 7, -2, -2, 11
> O=C(NC1CC2CCC1C2)c1ccco1 (stereo unspecified)
    i, 4, -16, -2, -4, 8, 7, -11
> CC(C)c1cc(CN2C(C)COCC2C)cc(C(C)C)c1O (stereo unspecified)
    nt, 7, -10, nt, 10, nt, 2, nt
> Cc1cccc(-c2nc(CS(=O)CC(=O)NCCc3ccccc3)c(C)o2)c1 (stereo unspecified)
    i, 0, nt, -10, 12, -12, -1, -18
> Cc1cccc(OCC(=O)N(Cc2cccs2)C2CCS(=O)(=O)C2)c1 (stereo unspecified)
    i, -3, 0, -9, nt, -3, 3, 0
> O=C(CCC1CCCN(C(=O)c2ccc3c(c2)OCO3)C1)NCc1ccc(F)c(F)c1 (stereo unspecified)
    i, -1, nt, 8, 6, -2, 0, -20
> CC(C)N=C1SC(CC(=O)Nc2ccccc2)C(=O)N1C(C)C (stereo unspecified)
    i, 1, -7, 0, -10, 3, 1, -11
> Nc1nnnn1CC(=O)OCc1cccc(Br)c1
    i, -2, 1, 2, -41, -9, 2, 0
> [N-]=[N+]=NC[C@H](Cc1ccccc1)N1CC[C@@H](O)CCC1=O
    i, 7, -21, -1, 8, -14, 5, 0
> COc1ccc(C(=O)CSc2nnc(-c3ccoc3C)n2CC2CCCO2)cc1 (stereo unspecified)
    i, -6, -7, 0, nt, -3, -4, -6
> Cc1ccc2nc(NCCO)nc(-c3ccccc3)c2c1
    i, -11, -13, 3, -76, -4, 1, -4
> COC(=O)[C@H](CC(C)C)NC(=O)Cn1cnc2c(NCc3ccccc3)ncnc21
    nt, 1, -7, nt, 45, nt, 2, nt
> COc1ccccc1NC(=O)CSc1ccc(-c2ccc(-n3cccn3)cc2)nn1
    i, 18, 20, nt, -16, nt, -12, 2

An excerpt from further up:
The line under a structure holds: Rce1 inhib, MT1-MMP act inh, UUG fidelity, PABP polyA inh, HIV Env fusion, eIF4H inh, MT1-MMP act inh RFP, CSC inhib
> Cc1ccc2nc(NCCO)nc(-c3ccccc3)c2c1
    i, -11, -13, 3, -76, -4, 1, -4
> COC(=O)[C@H](CC(C)C)NC(=O)Cn1cnc2c(NCc3ccccc3)ncnc21
    nt, 1, -7, nt, 45, nt, 2, nt
> COc1ccccc1NC(=O)CSc1ccc(-c2ccc(-n3cccn3)cc2)nn1
    i, 18, 20, nt, -16, nt, -12, 2
